Vaccinia pol inh – blocks vaccinia virus processive DNA synthesis. hit rate 0.94% among 46,000. in vitro processive DNA synthesis, absorbance read-out; active compounds read low; some inactives read as strong as hits. normalized absorbance, % (test concentration not listed);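 active means replicate mean up to 90% and picked by the depositor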;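 further: 100% = median of the test wells of a plate; 100 nL library stock went into each well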
* = called active by the depositor.

SMILES | Vaccinia pol inh
COc1cccc2cc(C(=O)N3CCN(CCO)CC3)c(=O)oc12 | 106
O=C1CC(C(=O)Nc2ccccc2)N=C(N2CCCCC2)N1 (stereo unspecified) | 104
O=C(CSc1nnc(NC(=O)Cc2ccccc2)s1)Nc1ccccc1 | 102
CCN1C(=O)c2ccccc2Sc2ccc(NC(=O)NC3CCCC3)cc21 | 90
COc1ccc(OCC(O)CNC(=O)Nc2ccccc2)cc1 (stereo unspecified) | 95
Cn1ccnc1SCc1cn2ccsc2n1 | 104
O=C(O)C1CC=CCC1C(=O)NCc1cccnc1 (stereo unspecified) | 106
O=C(NCc1ccco1)c1ccc(COCC(F)(F)F)cc1 | 100
C=CCn1cc(C=C2C(=O)OC3(CCCC3)OC2=O)c2ccccc21 | 100
Cc1ccc(-n2ncc3c(=O)[nH]c(SCC(=O)c4ccccc4)nc32)cc1 | 92
CCOc1ccc(NC2=NCCC2)cc1 | 93
CSc1ccccc1C(=O)Nc1cccc(C(C)O)c1 (stereo unspecified) | 101
CC(NS(=O)(=O)c1ccc(Cl)cc1)C(=O)O (stereo unspecified) | 100
COc1ccc(SCC(=O)NCc2ccc3c(c2)OCO3)cc1 | 93
CC(NS(=O)(=O)c1ccc(C(C)(C)C)cc1)C1C2CC3CC(C2)CC1C3 (stereo unspecified) | 99
CCc1ccc(NC(=O)N2CCC(N(C)C(C)C)CC2)cc1 | 98
CCCn1c(-c2ccc(S(=O)(=O)N3CCOCC3)cc2)csc1=Nc1ccccc1 | 100
Cc1cc2c(cc1C)CSC(c1ccccc1)SC2 | 108
O=C(C1CC1)N1N=C(C2CCCCC2)CC1(O)C(F)(F)F (stereo unspecified) | 100
Cc1ccc(NC(=O)c2ccc(CSc3ccccn3)cc2)c(C)c1 | 100

Structural class, those above with four or more nitrogen atoms
SMILES | Vaccinia pol inh
O=C1CC(C(=O)Nc2ccccc2)N=C(N2CCCCC2)N1 (stereo unspecified) | 104
O=C(CSc1nnc(NC(=O)Cc2ccccc2)s1)Nc1ccccc1 | 102
Cn1ccnc1SCc1cn2ccsc2n1 | 104
Cc1ccc(-n2ncc3c(=O)[nH]c(SCC(=O)c4ccccc4)nc32)cc1 | 92

Next results
SMILES | Vaccinia pol inh
O=C(CSc1ccc(Cl)cc1)Nc1cscc1S(=O)(=O)c1ccc(Cl)cc1 | 100
Cc1ccc(C)c(N(C)C(=O)CCS(=O)(=O)c2cccc3nonc23)c1 | 108
CC(=O)Nc1cccc(-c2cn3cccc(C)c3n2)c1 | 93
c1ccc(CSc2nn3cnnc3s2)cc1 | 96
Cc1ccc(NC(=O)CC(NCCC2=CCCCC2)C(=O)O)c(C)c1 (stereo unspecified) | 100
O=C(/C=C/c1cccc(C(F)(F)F)c1)NCc1cn2ccccc2n1 | 99
CCOC(=O)C1=C(C)NC(SC(C)=O)=NC1c1ccc(OC(C)=O)c(OC)c1 (stereo unspecified) | 100
Cc1c(C)c(C)c(S(=O)(=O)NCCCN2CCOCC2)c(C)c1C | 95
CC1(C)CCc2cc(-c3ccnc(=S)[nH]3)ccc2O1 | 103
CCOC(=O)c1ccsc1NC(=O)CC | 87
CC(C)(C)c1ccc2c(c1)CN(C(C)(C)C)CO2 | 100
CCOC(=O)c1cnc2nc(NCc3ccc(Cl)cc3)[nH]n2c1=O | 102
Cc1cc(-c2ccccc2)cc(-c2ccccc2)[o+]1 | 100
C(=Nc1cccc(N=Cc2ccsc2)c1)c1ccsc1 | 104
CN1CCN(c2ccc(CNC(=O)c3ccc4nsnc4c3)cc2)CC1 | 95
Cc1c(S(=O)(=O)N(C)c2ccccc2)sc2ccc(Cl)cc12 | 100
O=S(=O)(/C=C/c1ccccc1)NC12CC3CC(CC(C3)C1)C2 | 102
C=CCNC(=O)c1cc2ccccc2o1 | 100
COc1ccc(-n2cnc3c2C(=O)c2ccccc2C3=O)cc1 | 100
CC1N=C(c2ccccc2)c2ccccc2N(CCCOc2ccc(F)cc2)C1=O (stereo unspecified) | 89
CC1CN(S(=O)(=O)c2ccc3c4c(cccc24)C(=O)N3)CC(C)O1 (stereo unspecified) | 103
CCCc1cc(=O)oc2c(CN3CCOCC3)c(O)ccc12 | 99
COc1ccc(NC(=O)c2ccc(Br)o2)cc1 | 109
CCCc1nn(-c2ccc(Cl)cc2)cc1C(=O)Nc1ccc(Cl)cc1 | 105
c1ccc(-c2nc(NCc3cccnc3)c3ccccc3n2)cc1 | 102
Nc1ccc(Oc2ccc3c(c2)C(=O)N(Cc2ccco2)C3=O)cc1 | 108
O=C1N(Cc2ccccc2)c2cccc3cccc(c23)N1Cc1ccccc1 | 100
N#Cc1cc2c(nc1SCc1ccccc1Br)C1CCN2CC1 | 98
COc1cccc(/C=C2\C(=O)NC(=O)N(C)C2=O)c1 | 100
N#C/C(=C(/Oc1ccc(C#N)cc1)C(F)(F)F)c1ccccc1 | 97
Cn1cnc([N+](=O)[O-])c1Sc1ncnc2nc[nH]c12 | 100
Cc1cc2c(=O)n(CC(=O)NCC(=O)N3CCCCC3)cnc2s1 | 109
CCCN(C(=O)CCc1nc(-c2ccccc2F)no1)c1ccccc1C | 104
C=CCNc1sc(C)nc1C(N)=O | 100
Cc1cc(Br)ccc1NC(=O)CN1CCOCC1 | 124
CCc1cc(C(c2ccc(Cl)cc2)N2CCN(CCO)CC2)c(NC(=O)c2ccccc2)s1 (stereo unspecified) | 102
Cc1cc(=O)[nH]c2c1c(=O)[nH]n2C1CCCCC1 | 100
CC(=O)Nc1ccc(NC2SC(=O)NC2=O)cc1 (stereo unspecified) | 95
CC(NC(=O)c1cccs1)C12CC3CC(CC(C3)C1)C2 (stereo unspecified) | 79
COc1ccc(NS(=O)(=O)c2ccc(OCC(F)(F)F)c(C#N)c2OCC(F)(F)F)cc1 | 110

Four records drawn at random from those above, as already listed:
SMILES | Vaccinia pol inh
CCCc1cc(=O)oc2c(CN3CCOCC3)c(O)ccc12 | 99
C=CCNc1sc(C)nc1C(N)=O | 100
Cn1cnc([N+](=O)[O-])c1Sc1ncnc2nc[nH]c12 | 100
N#Cc1cc2c(nc1SCc1ccccc1Br)C1CCN2CC1 | 98

Further structures
SMILES | Vaccinia pol inh
NC(=O)c1cc(-c2ccccc2)sc1NC(=O)c1ccco1 | 107
Cc1ccc2c(c1)C(=O)C1(O)CCN(c3ccccc3)C1=N2 (stereo unspecified) | 100
Cc1ccc(-n2c(O)c(/C=N/c3ccccn3)c3ccccc3c2=O)cc1C | 96
O=C(CCn1c(=O)c2cccn2c2cccnc21)N1CCCC1 | 82
Cc1nc2c(-c3ccc(Cl)cc3)c(C(F)(F)F)[nH]n2c(=O)c1Cc1ccccc1 | 102
CC(C)c1ccc(NC(=O)c2cc3n(n2)C(C(F)(F)F)CC(c2ccco2)N3)cc1 (stereo unspecified) | 94
c1ccc(NC2CCCCC2)nc1 | 99
Cc1ccc(Nc2cc(C(=O)NCC3CCCO3)c3ccccc3n2)cc1C (stereo unspecified) | 107
CN1C(=O)C2C(c3cccc(Br)c3)C(C#N)=C(N)OC2N(C)C1=O (stereo unspecified) | 99
C[N+]1(CC(O)c2ccccc2)CCCCCC1 (stereo unspecified) | 100
CCOC(=O)C1CCN(S(=O)(=O)c2nc3nc(C)cc(C)n3n2)CC1 | 100
O=C(NCc1ccccc1)c1ccccc1NS(=O)(=O)c1ccc(F)cc1 | 101
CCOC(=O)C1CCCn2c1nc1sc3c(c1c2=O)CCCC3 (stereo unspecified) | 88
CCC1Sc2ccccc2N(CC(=O)NC2CC2)C1=O (stereo unspecified) | 103
O=C(CN1C(=O)CC(c2ccccc2)Sc2ccccc21)NC1CCCCC1 (stereo unspecified) | 101
COc1cccc(Nc2cc(C)c3ccccc3n2)c1 | 104
CC(C)c1cc(=O)n2[nH]c(N)nc2n1 | 100
CCN(CC)S(=O)(=O)c1ccc(/C=C/C(=O)Nc2ccc(F)cc2F)cc1 | 101
c1ccc(C(CCNCc2cccs2)c2ccco2)cc1 (stereo unspecified) | 105
Cn1cc(C(=O)Nc2cccnc2)c2ccccc2c1=O | 99

An excerpt from above in order of SMILES length, lowest first:
SMILES | Vaccinia pol inh
Cc1ccc2c(c1)C(=O)C1(O)CCN(c3ccccc3)C1=N2 (stereo unspecified) | 100
Cc1ccc(Nc2cc(C(=O)NCC3CCCO3)c3ccccc3n2)cc1C (stereo unspecified) | 107
O=C(NCc1ccccc1)c1ccccc1NS(=O)(=O)c1ccc(F)cc1 | 101

Next part.
SMILES | Vaccinia pol inh
COC(=O)c1sccc1NC(=O)C1CCCS1 (stereo unspecified) | 101
O=C(O)CCS(=O)(=O)c1ccc(Br)cc1 | 106
CCC(Oc1ccccc1)c1nc2ccccc2n1CC (stereo unspecified) | 105
CC1(C)CC(=O)C(C(c2ccccn2)c2c[nH]c3ccccc23)=C(O)C1 (stereo unspecified) | 101
COc1ccc2[nH]c(C)c(CCNS(=O)(=O)c3c(C)[nH]c(=O)[nH]c3=O)c2c1 | 101
O=C(CCCOc1ccccc1)Nc1nncs1 | 101
O=C(CCn1c(SCc2cccc(F)c2)nc2ccccc2c1=O)NCCc1ccccc1 | 100
CN(C)CCOC(c1ccc(Cl)cc1)c1ccccn1 (stereo unspecified) | 97
Cc1ccccc1NC1SC(=O)N(Cc2ccccc2)C1=O (stereo unspecified) | 99
COc1ccc(-c2oc3ncn(Cc4ccccc4)c(=N)c3c2-c2ccc(OC)cc2)cc1 | 100
COc1ccc(C2C3=C(CCCC3=O)Nc3nc4ccccc4n32)cc1 (stereo unspecified) | 106
O=C(Nc1cccnc1)c1ccc(Br)o1 | 94
CCOC(=O)c1c(C)n(Cc2ccccc2)c2ccc(OCC(O)CNC(C)(C)C)cc12 (stereo unspecified) | 99
CC1CCCN(c2ccc(C(F)(F)F)cn2)C1 (stereo unspecified) | 96
Cc1ccc(Cn2cccc2C2=NC(Cc3ccccc3)CO2)cc1 (stereo unspecified) | 104
c1ccc(-c2nn(-c3ccccc3)[n+](-c3ccccc3)n2)cc1 | 100
Fc1ccc(-c2onc3ccc(-c4ccn[nH]4)cc23)cc1 | 79*
O=C(CSc1ccccc1)NC1CC1 | 101
COc1ccc(C2(C(=O)NCc3ccco3)CCCC2)cc1OC | 100
Cc1ccc(O)c(-c2cc(C(F)(F)C(F)(F)F)nc(-c3ccccc3)n2)c1 | 100
CCCCC[C@H](O)/C=C/[C@@H]1[C@@H](C/C=C\CCCC(=O)O)[C@H]2CO[C@@H]1C2 | 100
O=C1C(=O)N(CCCn2ccnc2)C(c2ccc(Cl)cc2)/C1=C(\O)c1ccc(F)cc1 (stereo unspecified) | 110
O=C(CSc1nc2ccccc2[nH]1)n1c2ccccc2c2ccccc21 | 99
CC(CNC(=O)c1csc2c1CCCC2)c1ccccc1 (stereo unspecified) | 98
CC1C/C(=C/c2cccn2C)C(=O)/C(=C/c2cccn2C)C1 (stereo unspecified) | 104
COc1ccc(CC(=O)NCCSc2c(-c3ccccc3)[nH]c3ccccc23)cc1OC | 107
O=S(=O)(/N=S1/CCC2(C1)OCCO2)c1cc(C(F)(F)F)cc(C(F)(F)F)c1 (stereo unspecified) | 110
FC(F)(F)c1ccc(NCCNc2ccc(C(F)(F)F)cn2)nc1 | 95
COc1ccc(C(=O)OC2CC[C@@]3(C)C4CCC5[C@]6(O)C[C@H](O)[C@@]7(O)C(CN8CC(C)CCC8[C@@]7(C)O)[C@]6(O)C[C@@]53O[C@]24O)cc1OC (stereo partly specified) | 100
Cc1ccc(S(=O)(=O)NCc2ccccc2)cc1C(=O)N1CCCCCC1 | 97
CC(C)C(=O)Nc1nnc(-c2ccc(Cl)cc2)s1 | 100
Cc1nc(Oc2ccc(Cl)cc2)c(C(=O)O)c(C)c1Cl | 100
CNc1nc2ccccc2n2c(C)nnc12 | 100
O=C(/C=C/c1ccco1)N1CCN(Cc2ccccc2)CC1 | 93
COc1ccc2c(C)cc(SCC(=O)Nc3ccc4c(c3)OCO4)nc2c1 | 102
CCOC(=O)Cc1nnc(-c2ccccc2)o1 | 106
CSc1sc(=S)sc1SC | 104
O=C(CN1C(=O)CCSc2ccccc21)N1CCCC1 | 102
CN(c1ccccc1C(=O)O)S(=O)(=O)c1ccc2c3c(cccc13)C(=O)N2 | 50*
CC1CN(S(=O)(=O)c2ccc(F)cc2)C(C)CN1S(=O)(=O)c1ccc(F)cc1 (stereo unspecified) | 101

An excerpt of these results, in CSV form:
SMILES,Vaccinia pol inh
CC(C)C(=O)Nc1nnc(-c2ccc(Cl)cc2)s1,100
Cc1nc(Oc2ccc(Cl)cc2)c(C(=O)O)c(C)c1Cl,100

(further entries)
SMILES | Vaccinia pol inh
Cc1ncc(CO)c2cc(-c3nnc(Nc4cc(C(F)(F)F)ccc4Cl)s3)c(=O)oc12 | 102
O=C(Nc1cccc(C(F)(F)F)c1)N1CCC(CN2CCc3ccccc3C2)CC1 | 102
CC1=C(C(=O)Nc2ccccc2)C(c2ccccc2Cl)C(C#N)=C(SCC(N)=O)N1 (stereo unspecified) | 101
Cc1sc(-c2cccs2)nc1O | 99
CCOC(=O)N1CCN(S(=O)(=O)c2cccs2)CC1 | 100
CN(C(=O)c1ccc(Br)o1)C1CCS(=O)(=O)C1 (stereo unspecified) | 98
CCN(C(=O)c1cc2c(C)nc3ccccc3c2o1)c1cccc(Cl)c1 | 83
c1cc(CN2CCC(N3CCCCC3)CC2)ccn1 | 111
O=C1c2ccccc2C(=O)c2c1ncn2-c1ccccc1 | 100
CCC(C(=O)Nc1cccc(NC(C)=O)c1)c1ccccc1 (stereo unspecified) | 100
CCc1cc2c(cc3c(=O)[nH]ncn32)s1 | 98
Cc1ccc(-c2ncc(-c3ccccc3)o2)cc1 | 85
CC1CN=C(N(CCc2ccccc2)C(=O)Nc2ccc(Cl)cc2)S1 (stereo unspecified) | 104
O=C(O)Cc1cncc(Br)c1 | 97

Compound activity deposited in PubChem by ICCB-Longwood Screening Facility, Harvard Medical School.

These rows are one share of the data; rates above refer to the full screens.
